High-throughput results (PubChem)
STAT3 SMM: binders of human STAT3. P40763. Small molecule microarray, His-STAT3 binding, anti-His fluorescence. calls only. 17,000 tested, 0.2% active. AID 624138;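 active means compounds whose four printed spots each show fluorescence over background unusually high for their array block, chance value under 7%; compounds were printed on slides so no solution concentration is given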;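 further: about 2 pmol printed per array spot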
c-Myc SMM: binds human c-Myc on microarray; P01106; small molecule microarray, His-c-Myc binding, anti-His fluorescence; calls only; 17,000 tested, 1.5% active;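 active means spot fluorescence over background with P-value below 7% in all four replicate spots, showing protein binding; compounds were printed on slides so no solution concentration is given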;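 further: score is binary with 100 for all four spots passing and 0 otherwise; about 2 pmol printed per array spot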
Target sequence (P01106 whole entry, looked up): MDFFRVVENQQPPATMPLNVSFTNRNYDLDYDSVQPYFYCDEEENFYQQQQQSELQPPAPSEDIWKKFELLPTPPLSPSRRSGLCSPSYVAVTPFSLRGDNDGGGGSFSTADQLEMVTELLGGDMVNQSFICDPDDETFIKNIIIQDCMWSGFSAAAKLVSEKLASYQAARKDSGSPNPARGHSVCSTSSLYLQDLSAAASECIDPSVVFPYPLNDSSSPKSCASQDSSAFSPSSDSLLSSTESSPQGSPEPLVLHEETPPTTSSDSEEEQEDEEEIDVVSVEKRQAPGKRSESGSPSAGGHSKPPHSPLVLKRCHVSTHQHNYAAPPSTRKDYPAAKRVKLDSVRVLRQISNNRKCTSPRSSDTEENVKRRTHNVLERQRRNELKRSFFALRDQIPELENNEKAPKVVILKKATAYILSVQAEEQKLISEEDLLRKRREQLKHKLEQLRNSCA
ID4 binder: binds human ID4 protein on microarray | P47928 | small molecule microarray, Flag-ID4 binding, fluorescence F/B | calls only | 31,000 tested, 1.2% active | AID 624137;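 active means spot signal over background at p below 0.07 in all four prints; compounds were printed on slides so no solution concentration is given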;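 further: a binder raises fluorescence above local background on the spot; about 2 pmol printed per array spot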
Target sequence (P47928 whole entry, looked up): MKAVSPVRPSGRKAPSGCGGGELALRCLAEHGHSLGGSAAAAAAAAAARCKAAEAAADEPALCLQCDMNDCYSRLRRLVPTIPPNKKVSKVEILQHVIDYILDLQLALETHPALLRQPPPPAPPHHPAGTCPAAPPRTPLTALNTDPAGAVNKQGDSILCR
mut p53 SMM: binds human mutant p53 on microarray; 17,000 tested, 0.4% active; small molecule microarray binding, anti-GST fluorescence; calls only;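 active means compounds whose four printed spots each glow above background more than chance allows, each with a p-value under 7%; compounds were printed on slides so no solution concentration is given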;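 further: about 2 pmol printed per array spot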
Calls only; i = inactive; / = not tested or not shown; + = active, no number. Not all compounds are listed; count on the stated rates, not on these rows.

SMILES | STAT3 SMM | c-Myc SMM | ID4 binder | mut p53 SMM
C[C@H]1CN([C@@H](C)CO)C(=O)c2cc(NC(=O)NC3CCCCC3)ccc2O[C@@H]1CN(C)C(=O)Nc1ccc2c(c1)OCO2 | i | i | i | i
COC(=O)N(C)C[C@@H]1OCc2cnnn2CCCC(=O)N([C@@H](C)CO)C[C@@H]1C | i | i | i | i
C[C@H](CO)N1C[C@H](C)[C@H](CN(C)S(=O)(=O)c2cn(C)cn2)Oc2ccc(NS(C)(=O)=O)cc2C1=O | i | i | / | i
C[C@@H]1CN([C@@H](C)CO)C(=O)c2cc(NC(=O)Nc3ccc(F)cc3)ccc2O[C@@H]1CN(C)S(=O)(=O)c1cccs1 | i | i | i | i
CC(C)NC(=O)N(C)C[C@@H]1OCCCC[C@H](C)Oc2ccc(NC(=O)Cc3ccccc3)cc2C(=O)N([C@H](C)CO)C[C@@H]1C | i | i | i | i
O=C(CSc1ccccc1)Nc1ccc(C(=O)Nc2ccc(Br)cc2C(=O)O)cc1 | i | i | i | i
CCc1ccc(C(=O)Nc2ccc(S(=O)(=O)Nc3nc(C)cc(C)n3)cc2)o1 | i | i | i | i
COc1ccc(S(=O)(=O)N(C)C[C@@H]2Oc3c(NS(C)(=O)=O)cccc3C(=O)N([C@@H](C)CO)C[C@@H]2C)cc1 | i | i | i | i
Cc1cc(C(=O)Oc2c(C)cc(C(=O)O)c(O)c2C)c(O)c(C)c1O | i | i | / | i
Cc1cc(Cl)ccc1OC(C)C(=O)Nc1ccc(C(=O)Nc2ccccc2C(=O)O)cc1 (stereo not drawn) | i | + | i | i
C[C@H](CO)N1C[C@H](C)[C@H](CN(C)S(=O)(=O)c2ccc(Cl)cc2)Oc2ccc(NS(=O)(=O)c3cccs3)cc2CC1=O | i | i | i | i
C[C@@H]1CN([C@H](C)CO)C(=O)c2cccc(NC(=O)c3ccc(-c4nccs4)cc3)c2O[C@H]1CN(C)S(=O)(=O)c1cccs1 | i | i | i | i
CSc1ccccc1NC(=O)C(C)NS(=O)(=O)c1ccccc1 (stereo not drawn) | i | i | i | i
C[C@@H]1CN([C@H](C)CO)C(=O)Cc2cc(NC(=O)C3CC3)ccc2O[C@@H]1CN(C)C(=O)Nc1ccc(F)cc1 | i | i | i | i
C#CCNC(=O)C1=C[C@@H](c2ccc(C#C)cc2)[C@H](CCCO)[C@@H](OCC)O1 | i | i | i | i
CC12N=C3SCC(=O)N3[C@H](c3ccccc3O1)[C@H]2CO[Si](C)(C)C(C)(C)C | i | i | i | i
COc1ccc(S(=O)(=O)N2Cc3ccccc3CC2C(=O)O)cc1OC (stereo not drawn) | i | i | i | i
O=C(N1CCCCC1)[C@@]1(Cc2ccccc2)COC(c2ccc(OCCCO)cc2)=N1 | i | i | i | i
COC(=O)C[C@H]1[C@]2(C)C3=C(C)[C@H](c4ccoc4)C[C@H]3O[C@@H]2[C@H](OC(C)=O)C2[C@](C)(C(=O)OC)C=CC(=O)[C@@]21C (stereo partly drawn) | i | i | / | i
C[C@H](CO)N1C[C@H](C)[C@@H](CN(C)C(=O)NC2CCCCC2)Oc2c(NS(=O)(=O)c3cccs3)cccc2C1=O | i | i | i | i
C[C@@H]1CN([C@H](C)CO)C(=O)Cc2cc(N(C)C)ccc2O[C@@H]1CN(C)Cc1ccc(C(F)(F)F)cc1 | i | i | i | i
COc1ccc(OC)c(NC(=O)COc2ccc3c(C)cc(=O)oc3c2)c1 | i | i | i | i
C[C@@H]1CCCCO[C@@H](CN(C)C(=O)Cc2ccccc2)[C@@H](C)CN([C@@H](C)CO)C(=O)c2cc(NC(=O)Nc3ccccc3)ccc2O1 | i | i | i | i
COc1ccccc1-n1c(SCC(=O)N2CCOCC2)nc2ccccc2c1=O | i | i | i | i
COc1ccc(-c2cc(C(F)(F)F)n3ncc(C(=O)NCc4nc5ccccc5[nH]4)c3n2)cc1OC | i | i | i | i

The list continues:
SMILES | STAT3 SMM | c-Myc SMM | ID4 binder | mut p53 SMM
Cc1noc(C)c1NC(=O)Nc1cccc2c1O[C@H](CN(C)Cc1ccc3c(c1)OCO3)[C@H](C)CN([C@@H](C)CO)C2=O | i | i | i | i
O=C(CNS(=O)(=O)c1ccccc1)Nc1ccccc1Br | i | i | i | i
Cc1cc(C(=O)Nc2cccc3c2O[C@H](CN(C)C(=O)Nc2ccccc2)[C@@H](C)CN([C@@H](C)CO)C3=O)n(C)n1 | i | i | i | i
C[C@@H]1CN([C@H](C)CO)C(=O)c2cccc(NS(=O)(=O)c3ccc(Cl)cc3)c2O[C@@H]1CN(C)C | i | i | i | i
C[C@@H]1CCCCO[C@H](CN(C)Cc2ccncc2)[C@@H](C)CN([C@@H](C)CO)C(=O)c2cc(N(C)C)ccc2O1 | i | i | i | i
C[C@H]1CN([C@@H](C)CO)C(=O)c2cc(NC(=O)Nc3ccc(F)cc3)ccc2O[C@H]1CN(C)S(=O)(=O)c1cn(C)cn1 | i | i | i | i
C=CCN1CCc2cc(OC)c(OC)cc2C1C#Cc1ccccc1 (stereo not drawn) | i | i | i | i
C[C@@H]1CN([C@H](C)CO)C(=O)c2cccc(NC(=O)c3ccncc3)c2O[C@H]1CN(C)Cc1ccc(C(F)(F)F)cc1 | i | i | i | i
COc1cc([C@H]2OC[C@H]3[C@@H]2CO[C@H]3c2cc(OC)c(OC)c(OC)c2)cc(OC)c1OC | i | i | / | i
C[C@@H]1CCCCO[C@H](CN(C)C(=O)Nc2ccccc2)[C@@H](C)CN([C@@H](C)CO)C(=O)c2cc(NC(=O)c3ccccc3)ccc2O1 | i | i | i | i
CC(=O)OCC(=O)[C@@]1(OC(C)=O)[C@@H](C)C[C@H]2[C@@H]3C[C@H](F)C4=CC(=O)C=C[C@]4(C)[C@@]3(F)[C@@H](O)C[C@@]21C | i | i | i | i
C[C@@H]1CCCCO[C@H](CN(C)C)[C@H](C)CN([C@@H](C)CO)C(=O)c2cc(NS(=O)(=O)c3cccs3)ccc2O1 | i | i | i | i
CC#CCOC(=O)c1c(C)nc2sc3c(c2c1N)CCC(O)C3 (stereo not drawn) | i | i | i | i
Brc1cccc(Nc2ncnc3cc4nc[nH]c4cc23)c1 | i | i | / | i
C[C@@H]1CN([C@H](C)CO)C(=O)c2cc(N(C)C)ccc2O[C@@H](C)CCCCO[C@@H]1CN(C)C | i | i | i | i
Cc1noc(C)c1NC(=O)N(C)C[C@H]1Oc2c(NC(=O)c3ccc(-c4nccs4)cc3)cccc2C(=O)N([C@H](C)CO)C[C@H]1C | i | i | i | i
CC(CC[C@]1(C)C2CCC=C(CO)[C@]2(C)CC[C@H]1C)CC(=O)O (stereo partly drawn) | i | i | / | i
C[C@H](CO)N1C[C@H](C)[C@@H](CN(C)C(=O)Nc2ccc3c(c2)OCO3)Oc2ccc(NS(=O)(=O)c3cccs3)cc2C1=O | i | i | i | i
C[C@H]1CN([C@@H](C)CO)C(=O)c2cc(NC(=O)Cc3ccccc3)ccc2O[C@H]1CN(C)C(=O)Nc1ccc2c(c1)OCO2 | i | i | / | i
COc1ccc(C(=O)NCc2cccnc2)cc1C(=O)NCc1cccnc1 | i | i | i | i
Cc1c(Cl)cccc1NC(=O)Nc1cccc(Cn2cccn2)c1 | i | i | i | i
Cc1noc(C)c1NC(=O)Nc1ccc2c(c1)C(=O)N([C@@H](C)CO)C[C@H](C)[C@H](CN(C)S(=O)(=O)c1cn(C)cn1)OCCCC[C@@H](C)O2 | i | i | i | i
C[C@H](CCC(=O)O)[C@H]1CCC2[C@@H]3CC[C@@H]4C[C@H](O)CC[C@]4(C)C3C=C[C@@]21C (stereo partly drawn) | i | i | i | i
C/C1=C/C[C@H](O)/C(C)=C\[C@H]2OC(=O)[C@@H](C)[C@@H]2CC1 | i | i | / | i
O=C(C1=C[C@@H](c2ccccc2)C[C@@H](OCc2ccc(CO)cc2)O1)N1CCOCC1 | i | i | i | i

The closing 6 compounds of the section before are carried over, then new ones follow.
SMILES | STAT3 SMM | c-Myc SMM | ID4 binder | mut p53 SMM
COc1ccc(C(=O)NCc2cccnc2)cc1C(=O)NCc1cccnc1 | i | i | i | i
Cc1c(Cl)cccc1NC(=O)Nc1cccc(Cn2cccn2)c1 | i | i | i | i
Cc1noc(C)c1NC(=O)Nc1ccc2c(c1)C(=O)N([C@@H](C)CO)C[C@H](C)[C@H](CN(C)S(=O)(=O)c1cn(C)cn1)OCCCC[C@@H](C)O2 | i | i | i | i
C[C@H](CCC(=O)O)[C@H]1CCC2[C@@H]3CC[C@@H]4C[C@H](O)CC[C@]4(C)C3C=C[C@@]21C (stereo partly drawn) | i | i | i | i
C/C1=C/C[C@H](O)/C(C)=C\[C@H]2OC(=O)[C@@H](C)[C@@H]2CC1 | i | i | / | i
O=C(C1=C[C@@H](c2ccccc2)C[C@@H](OCc2ccc(CO)cc2)O1)N1CCOCC1 | i | i | i | i
Cc1noc(C)c1NC(=O)Nc1cccc2c1O[C@H](CN(C)CC1CC1)[C@H](C)CN([C@@H](C)CO)C2=O | i | i | i | i
C[C@@H]1CN([C@@H](C)CO)C(=O)CCCn2cc(nn2)CO[C@@H]1CN(C)C(=O)Nc1ccccc1F | i | i | i | i
O=c1c(-c2ccc(O)cc2)coc2cc(OC3OC(CO)C(O)C(O)C3O)cc(O)c12 (stereo not drawn) | i | i | i | i
N#Cc1c(-c2ccccc2)cc(-c2ccccc2)nc1SCC(=O)O | i | i | i | i
Cc1cc(C)n(C(=O)CN(C)S(=O)(=O)c2ccc([N+](=O)[O-])cc2)n1 | i | i | i | i
Cc1noc(C)c1NC(=O)Nc1cccc2c1O[C@H](CN(C)Cc1ccc3c(c1)OCO3)[C@@H](C)CN([C@H](C)CO)C2=O | i | i | i | i
O=C(CC1Sc2ncnn2C1=O)Nc1ccccc1 (stereo not drawn) | i | i | i | i
C[C@@H]1CN([C@H](C)CO)C(=O)c2cccc(NC(=O)Nc3cccc4ccccc34)c2O[C@H]1CN(C)C(=O)Nc1cccc2ccccc12 | i | i | i | i
C[C@H]1CCCCO[C@H](CN(C)C)[C@@H](C)CN([C@@H](C)CO)C(=O)c2cc(NS(=O)(=O)c3cccs3)ccc2O1 | i | i | i | i
CNC[C@H]1Oc2c(cccc2N(C)C)C(=O)N([C@@H](C)CO)C[C@H]1C | i | i | i | i
O=C(Nc1ccc(O)cc1)c1cc(S(=O)(=O)N2CCOCC2)c(Cl)cc1Cl | i | i | i | i
C[C@H](CO)N1C[C@H](C)[C@H](CN(C)S(=O)(=O)c2cn(C)cn2)Oc2ccc(N(C)C)cc2C1=O | i | i | i | i
COC(=O)c1ccc([C@H]2C=C(C(=O)O)O[C@@H](OCCCCO)C2)cc1 | i | i | i | i
C[C@@H]1CCCCO[C@@H](CN(C)C(=O)Nc2ccccc2)[C@H](C)CN([C@H](C)CO)C(=O)c2cc(NC(=O)Cc3ccccc3)ccc2O1 | i | i | i | i
C[C@@H]1CN([C@H](C)CO)C(=O)c2cc(NS(=O)(=O)c3cccs3)ccc2O[C@@H](C)CCCCO[C@@H]1CN(C)C(=O)CCC(F)(F)F | i | i | i | i
C=C1C(=O)O[C@H]2[C@H]1[C@H](O)CC(=C)[C@@H]1CC(=O)C(C)[C@H]21 (stereo partly drawn) | i | i | / | i
CC(C)NC(=O)Nc1cccc2c1O[C@H](CN(C)CC1CC1)[C@@H](C)CN([C@@H](C)CO)C2=O | i | i | i | i
C[C@@H]1CN([C@@H](C)CO)C(=O)Cc2cc(NC(=O)c3ccncc3)ccc2O[C@H]1CN(C)C(=O)NC1CCCCC1 | i | i | i | i
C[C@@H]1CN([C@H](C)CO)C(=O)CCCn2cc(nn2)CO[C@H]1CN(C)C(=O)Nc1ccccc1C(F)(F)F | i | i | i | i
Cc1cc(C)nc(SCC(=O)Nc2cc([N+](=O)[O-])ccc2C)n1 | i | i | i | i
C[C@@H]1CCCCO[C@@H](CN(C)Cc2ccc(C(F)(F)F)cc2)[C@H](C)CN([C@@H](C)CO)C(=O)c2cc(NS(=O)(=O)c3ccc(Cl)cc3)ccc2O1 | i | i | / | i
C[C@@H]1CCCCO[C@@H](CN(C)C)[C@H](C)CN([C@@H](C)CO)C(=O)c2cc(NC(=O)Nc3ccccc3)ccc2O1 | i | i | i | i
C[C@H](CO)N1C[C@H](C)[C@H](CN(C)Cc2ccc(C(F)(F)F)cc2)Oc2ccc(NS(=O)(=O)c3cccs3)cc2CC1=O | i | i | i | i
C[C@@H]1CN([C@@H](C)CO)C(=O)c2cc(NS(=O)(=O)c3ccccc3)ccc2O[C@@H](C)CCCCO[C@@H]1CN(C)C(=O)C1CCCCC1 | + | i | i | i
COc1ccc(S(=O)(=O)N(C)C[C@H]2Oc3c(NC(=O)C4CCOCC4)cccc3C(=O)N([C@@H](C)CO)C[C@H]2C)cc1 | i | i | i | i
Cc1noc(C)c1NC(=O)Nc1cccc2c1O[C@H](CN(C)Cc1ccc3c(c1)OCO3)[C@H](C)CN([C@H](C)CO)C2=O | i | i | i | i
CCOC(=O)c1c(CN2CCOCC2)nc2c3ccccc3ccn12 | i | i | i | i
C[C@H](CO)N1C[C@H](C)[C@H](CN(C)Cc2ccc(C(F)(F)F)cc2)OCCCC[C@H](C)Oc2ccc(NS(C)(=O)=O)cc2C1=O | i | i | / | i

Taken from the entries so far for reference:
SMILES | STAT3 SMM | c-Myc SMM | ID4 binder | mut p53 SMM
Cc1noc(C)c1NC(=O)Nc1cccc2c1O[C@H](CN(C)CC1CC1)[C@H](C)CN([C@@H](C)CO)C2=O | i | i | i | i
C[C@@H]1CN([C@@H](C)CO)C(=O)CCCn2cc(nn2)CO[C@@H]1CN(C)C(=O)Nc1ccccc1F | i | i | i | i
